Assay outcomes as filed in PubChem.
VCAM-1 rise = enhancers of VCAM-1 display on endothelial cells, cell-based, plate reader, pooled HUVEC, TNFa stimulus (AID 455); HUVEC TNFa-induced VCAM-1 immunofluorescence, plate reader; numbers were filed only for top-ranked candidate wells; augmentation, % at 5 µM; hit rate 0.2% among 10,000;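 active = a compound raising TNF-alpha-driven VCAM-1 surface staining, with its hit status upheld on visual or statistical review; inactive = the rest, including hits rejected on review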;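 also: 0% = TNFa with vehicle and 100% = strongest image-checked hit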
26S disassembly = inhibitors of ATP-driven 26S proteasome dissociation, primary screen, biochemical, bead-based flow cytometry, GFP-tagged proteasome; hit rate 0.2% among 24,000; inhibition of disassembly, % (no concentration beside the values); anti-FLAG beads, GFP-proteasome disassembly; AID 751, 2007;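 active = above 40%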;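 also: plate controls were ATP control with full disassembly for no effect and ATP-gamma-S intact proteasomes for full effect; higher percent means more bead fluorescence retained so stronger block of disassembly; stock transfer was 100 nL into about 10 µL; wells with too few beads may also be inconclusive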
* = called active by the depositor; i = inactive; / = no result given.

molecule,VCAM-1 rise,26S disassembly
CCOC(=O)Cn1c(CN2CCN(c3cccc(Cl)c3)CC2)nc2c1c(=O)[nH]c(=O)n2C,i,1.9
CCCCCC1CC(=O)N(Cc2ccccc2)C(=O)N1 (stereo unspecified),/,4.2
COc1ccccc1CNC(=O)CCN1C(=O)COc2ccccc21,/,0.2
CN1CCN(C(=O)c2ccc3c(=O)n(Cc4ccc(Cl)cc4)c(=S)[nH]c3c2)CC1,/,1.8
CCCCOC(=O)C1=C(C)Nc2ncnn2C1c1ccc(OCC)c(OC)c1 (stereo unspecified),/,-0.2
O=C(CN1CCN(CC(=O)c2ccc(F)cc2)CC1)Nc1ccccc1Cl,/,2.1
Cc1nc(CCNC(=O)Cc2ccccc2)cs1,/,0.1
Fc1c(F)c(F)c(CSc2nc3ccccc3[nH]2)c(F)c1F,i,0.0
CCOc1ccc(OCC)c(NC(=O)C2CCCN(S(=O)(=O)c3c(C)noc3C)C2)c1 (stereo unspecified),/,-0.7
O=C(C1CCC1)N1CCc2cc(S(=O)(=O)N3CCN(c4ccccn4)CC3)ccc21,/,-0.7
COc1ccccc1N1CCN(c2cc(=O)n(Cc3ccc(F)cc3)c(=O)[nH]2)CC1,i,-0.1
O=C(C(c1ccccc1)c1ccccc1)N1CCN(Cc2ccccn2)CC1,i,0.5
CC(C)c1nnc(SCC(=O)NCc2ccco2)n1C,i,-1.6
COc1ccc(N2C(=O)C3CCCN3C2c2cccc(OC)c2OC)cc1 (stereo unspecified),/,0.3
CN1C(=O)CS(=O)c2ccc(C(=O)NC3CC3)cc21 (stereo unspecified),/,-1.8
CCC(CC)c1nnc(NC(=O)c2c(-c3ccccc3)noc2C)s1,/,-0.3
CCOc1ccccc1NC(=O)C1CCN(S(=O)(=O)c2c(C)nn(C)c2C)CC1,/,-0.9
COC(=O)c1ccccc1NC(=O)COc1ccc(S(=O)(=O)N2CCCC2)cc1C,i,0.5
COC(=O)c1ccc(C(=O)OC)nc1,/,0.8
O=S(=O)(NCc1ccccc1Cl)c1cnc[nH]1,/,2.0
Cc1cc2ccccc2n1CCNC(=O)C1CC1,i,1.0
O=C(O)C(Cc1ccccc1)n1cccc1 (stereo unspecified),/,-1.6
O=C(c1cc(-c2cccs2)on1)N1CCOCC1,/,-0.2
NC(=O)COc1ccc(=O)n(-c2ccccc2)n1,/,1.8
COC(=O)C1C(=O)C2=C(CC1C)NC(C)=C(C(=O)OCCOc1ccccc1)C2c1ccc(C)o1 (stereo unspecified),/,0.8

Reprinted at random: five compounds from above.
molecule,VCAM-1 rise,26S disassembly
CN1CCN(C(=O)c2ccc3c(=O)n(Cc4ccc(Cl)cc4)c(=S)[nH]c3c2)CC1,/,1.8
COC(=O)C1C(=O)C2=C(CC1C)NC(C)=C(C(=O)OCCOc1ccccc1)C2c1ccc(C)o1 (stereo unspecified),/,0.8
CCOc1ccccc1NC(=O)C1CCN(S(=O)(=O)c2c(C)nn(C)c2C)CC1,/,-0.9
CCOc1ccc(OCC)c(NC(=O)C2CCCN(S(=O)(=O)c3c(C)noc3C)C2)c1 (stereo unspecified),/,-0.7
Cc1nc(CCNC(=O)Cc2ccccc2)cs1,/,0.1

(listing goes on)
molecule,VCAM-1 rise,26S disassembly
COc1ccc(S(=O)(=O)Cc2ccc(C(=O)NCc3cccs3)o2)cc1,/,0.4
O=C(C(NS(=O)(=O)c1cccs1)c1ccccc1)N1CCN(c2ccccc2)CC1 (stereo unspecified),/,6.4
CCOC(=O)N1CCC(N2CC34C=CC(O3)C(C(=O)Nc3ccc(C)cc3)C4C2=O)CC1 (stereo unspecified),/,-0.7
CC(NC(=O)c1cc2ccccc2o1)c1cccs1 (stereo unspecified),/,0.2
Cc1cc2c(=O)n(CC(=O)N3CCN(c4ccccc4)CC3)cnc2s1,i,0.5
O=C(O)CCCCCNc1nc(=S)[nH]c2ccccc12,i,-0.1
CC(C)n1c(NCc2cc(Cl)ccc2O)nc2ccccc21,/,-3.3
Cc1cc(Nc2cccc(F)c2)n2ncnc2n1,/,-2.0
CC1CCN(CCCNC(=O)c2ccc(CS(=O)(=O)Cc3ccccc3F)o2)CC1,/,4.5
Cc1cc(C(F)(F)F)nn1Cc1ccc(C(=O)NCc2ccco2)o1,i,-0.1
CCCCCn1c(CN2CCN(C)CC2)nc2c1c(=O)n(C)c(=O)n2C,i,-0.4
O=C1OC(c2ccccc2)=C/C1=C/N1CCCCC1,/,-0.1
Cc1ccc(C(C(=O)NC2CCCC2)N2CCCCC2)cc1 (stereo unspecified),/,0.5
CCOC(=O)Cc1csc(NC(=O)c2cccc(OC)c2)n1,i,1.6
Cc1ccc(S(=O)(=O)N2CCN(C(=O)CSc3nc4ccccc4o3)C2)cc1,/,1.5
C=CCn1c(COc2ccc(CC)cc2)nnc1SC/C(O)=C(\C#N)c1nc2ccccc2[nH]1,i,15
CCc1c(C)nc(SCC(=O)Nc2ccc(Br)cc2)[nH]c1=O,/,-0.8
CCS(=O)(=O)N1CCCC(C(=O)NCc2cccnc2)C1 (stereo unspecified),/,-0.4
CCOc1cc(C(=O)N(C)Cc2cc3cc(OC)ccc3[nH]c2=O)cc(OCC)c1OCC,i,5.3
Fc1ccc(C2C3=C(Nc4ncnn42)c2ccccc2OC3c2ccncc2)cc1 (stereo unspecified),i,0.0
Cc1cccc2cc(C#N)c(SCCN3CCCCC3)nc12,i,10.0
CCOC(=O)N1CCC(Nc2c(NCCCN3CCN(c4ccc(OC)cc4)CC3)c(=O)c2=O)CC1,/,1.1
COc1ccc2cc3cc(C(=O)N4CCN(Cc5ccc6c(c5)OCO6)CC4)oc3nc2c1,/,0.1
CCOC1(C(F)(F)F)NC(=O)N(Cc2ccc(OC)cc2)C1=O (stereo unspecified),/,0.4
CCCCOc1ccccc1C1CC(=O)NC2=C1C(=O)CCC2 (stereo unspecified),/,-2.0
O=C(COc1ccccc1O)Nc1ccccc1Cl,/,-2.5
COc1ccccc1C(=O)Nc1ccc(N2CCN(Cc3ccccc3)CC2)cc1,/,-0.6
CSc1ccccc1NC(=O)c1cc(CC(C)C)on1,/,0.0
Cc1ccc(NC2c3ncccc3C(=O)N2c2ccccc2C)cc1C (stereo unspecified),/,2.9
O=C(NCC1CCCO1)c1coc2nc3ccccc3nc12 (stereo unspecified),/,2.5
CC1(C(=O)NC2CCCCCCC2)CCC(=O)N1CCN1CCOCC1 (stereo unspecified),/,2.0
COc1ccc(CC(=O)NC2CCN(CC(=O)Nc3ccc4c(c3)OCCO4)CC2)cc1OC,i,-0.2
CCOC(=O)N1CCN(C(=O)c2nn(-c3ccc(C)cc3)c(=O)c3c2c2ccccc2n3C)CC1,/,-0.1
CCCS(=O)(=O)N1CCCC(C(=O)NCCN2CCCCC2C)C1 (stereo unspecified),/,21
CC1CC(NC(=O)c2cnc3n(c2=O)CCS3)CC(C)(C)C1 (stereo unspecified),i,-0.6
Cc1ccc(Cn2ccc(NC(=O)c3noc4c3CCCCC4)n2)cc1,/,0.3
CCCCNC(=O)c1cc2c(-c3ccc(Cl)cc3)nn(C)c2s1,/,0.4
O=C(NO)c1ccc(OC(F)F)cc1,/,-3.1
COc1cc(OC)c(C2N(c3cc(C)on3)C(=O)C3CCCN32)cc1OC (stereo unspecified),/,-2.2
Cc1c(C(=O)NCC2CCCO2)oc2ccc(S(=O)(=O)N3CC(C)CC(C)C3)cc12 (stereo unspecified),/,1.0
O=C(Cn1ncc2c1-c1ccccc1OC2)N1CCc2ccccc21,i,-0.8
CC(Sc1nc(-c2ccccc2)cc(C(F)(F)F)n1)C(=O)N1CCC(C(N)=O)CC1 (stereo unspecified),i,-0.6
O=C(CSc1nc2[nH]ncc2c(=O)n1-c1ccccc1)N1CCCc2ccccc21,/,3.1
CC(NC(=O)Cn1cc2c(n1)CCCCC2)c1ccccc1 (stereo unspecified),/,-3.1
COc1ccc(-c2cc(C(=O)NC3CCCC3)no2)cc1OC,/,-0.2
CCc1ccccc1NC(=O)CN1C(=O)C2CCCN2c2ncc(Cl)cc21 (stereo unspecified),/,1.2
O=C(NC1=NCCS1)NC12CC3CC(CC(C3)C1)C2,i,-0.1
Cc1cccc(C)c1NC(=O)CS(=O)CC(=O)NC1CCCc2ccccc21 (stereo unspecified),i,-0.4
CC(=O)c1cccc(N=C2C(=O)Nc3ccccc32)c1,/,1.9
Cn1c(C(=O)N2CCCC(C(=O)NCCCc3ccccc3)C2)cc2sccc21 (stereo unspecified),i,-1.5

Remaining list, next part.
molecule,VCAM-1 rise,26S disassembly
CC(=O)NC(CCS(C)(=O)=O)C(=O)Nc1cccc(C)c1C (stereo unspecified),i,1.1
COc1ccc(Cn2nnnc2C(c2cccs2)N2CCOCC2)cc1 (stereo unspecified),i,0.7
COc1ccc2c(c1)CCc1c(C(=O)NCCc3ccc(OC)c(OC)c3)noc1-2,/,0.3
COc1ccc(C2=Nn3c(nnc3-c3cccnc3)SC2)cc1,i,-1.3
COc1ccc(-c2nc3n(n2)C(c2ccccc2Cl)C(C(N)=O)=C(C)N3)cc1 (stereo unspecified),/,4.0
O=C(CCN1C(=O)C2C3C=CC(C3)C2C1=O)NCCc1ccccc1 (stereo unspecified),/,-0.3
COc1ccc(Cn2c(CCCO)nc3ccccc32)cc1OC,i,1.7
COc1cc2c(cc1NCc1ccccn1)oc1ccccc12,i,-0.1
COc1ccc(NC(=O)N(Cc2ccc(C)cc2)Cc2ccccn2)c(OC)c1,/,-0.1
CCC1c2ccc(C)n2CCN1C(=O)Nc1ccc(F)cc1 (stereo unspecified),/,5.5
CCC1=C(C(=O)OC)C(c2cc(OC)ccc2OC)C(C#N)=C(N)O1 (stereo unspecified),i,-0.3
Cc1nn(-c2ccccn2)c2c1-c1nc(N)ncc1CC2,/,-0.9
O=C(Nc1nncs1)c1ccc(N2C(=O)C3C4C=CC(C4)C3C2=O)cc1 (stereo unspecified),/,-0.9
C/C(O)=c1/ccc2cccc3nc(C)nc1c23,/,17
Cc1cccc(Cc2nnc(NC(=O)c3cccc(S(=O)(=O)N4CCOCC4)c3)s2)c1,i,-2.5
Nc1nnc(-c2cc3ccccc3oc2=O)s1,i,-0.8
C=CCn1c(NC(=O)c2ccc(C)cc2)c(C#N)sc1=N,/,0.6
CSc1nsc(SC)c1NC(=O)OCc1ccccc1,/,0.0
CC(C)OC(=O)CN1C(=O)C(C)(C)Oc2ccc(C(=O)NC3CC3)cc21,i,-0.3
COCC(=O)N(Cc1ccc(OC)cc1)Cc1nc2ccccc2c(=O)[nH]1,i,-0.8
O=C(CSc1nc(O)c(Cc2ccccc2F)c(=O)[nH]1)N1CCCCCC1,/,-1.5
N#C/C(=C(/O)CN1CCOCC1)c1nc2ccccc2s1,i,3.1
CN(C)S(=O)(=O)c1ccc(NC(=O)C2COc3ccccc3O2)cc1 (stereo unspecified),/,-1.4
Nc1cc(C(=O)O)ccc1Nc1ccccc1,i,-0.6
CCOC(=O)c1cc2c(=O)n3ccccc3nc2n(CCOC)c1=NC(=O)C(C)(C)C,/,-0.7
c1coc(CN2CN=C(Nc3nc4ccccc4s3)NC2)c1,i,-1.2
CC1CC(C)CN(C(=O)Cn2c(=O)n(CCCCC(=O)NCc3ccco3)c(=O)c3ccccc32)C1 (stereo unspecified),/,1.3
CC1Oc2ccccc2N(Cc2ccccc2Cl)C1=O (stereo unspecified),i,-3.2
COc1cccc(NC(=O)c2ccccc2NS(C)(=O)=O)c1,i,1.0
CCOC(=O)c1c(C)c(C(=O)NCC2CCCO2)c(C)n1C (stereo unspecified),i,-0.4
CCOC(=O)N1CCN(C(=O)c2ccc3c(=O)n(-c4ccc(OC)cc4)c(=S)[nH]c3c2)CC1,/,2.1
Cn1c(-c2ccccc2)cccc1=O,/,-0.4
CCOC(=O)N1CCC(NC(=O)CCS(=O)(=O)c2ccc3c(c2)CCN3C(=O)CC)CC1,/,0.8
CCOc1ccc(Cn2nnc(C(=O)NCc3ccc(OC)cc3)c2N)cc1,i,0.3
O=C(CCCN1C(=O)CSc2ncccc21)N1CCN(c2cccc(C(F)(F)F)c2)CC1,/,1.8
O=C(CN1CCN(S(=O)(=O)c2ccc(Br)cc2)CC1)Nc1ccccc1F,/,-1.8
Cc1ccc(/C=c2\sc3nc(-c4ccccc4Br)nn3c2=O)o1,i,-1.0
Cc1ccc(N(CN2CCCC2=O)C(=O)c2ccc(OC(C)C)cc2)cc1,/,-0.2
Cc1nn(Cc2ccc(F)cc2)c(C)c1NC(=O)c1cc(-c2ccc3c(c2)OCO3)on1,/,-0.7

One compound at a time, as listed above.
COc1cccc(NC(=O)c2ccccc2NS(C)(=O)=O)c1 is listed with VCAM-1 rise = i; 26S disassembly = 1.0
O=C(Cn1ncc2c1-c1ccccc1OC2)N1CCc2ccccc21 is listed with VCAM-1 rise = i; 26S disassembly = -0.8

Not all compounds are listed; the hit share may differ from the screen's.
